Screening results as filed in PubChem.
Methyltransferases – Primary Screen for Target Class Profiling of Small Molecule Inhibitors of Methyltransferases. purified enzyme, MTase-Glo SAH luminescence; stronger effect = lower value. calls only at 40 µM. 25,000 tested, 3.9% active. AID 1745853, 2022; active = -50% or lower on at least one of six enzymes; inconclusive = the cases between; inactive = as a rule above -30% on all six;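 note: enzymes were COMT GAMT GNMT HNMT NNMT and PNMT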
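Each enzyme was assayed with SAM and its substrate. SAH formation detected by MTase-Glo luminescence; single-point 40 uM screen[…].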
Calls only; i = inactive; ? = inconclusive; + = active, no number. % is set by controls: 0 for no effect and ±100 for the full control effect.

Start of the listing, in advance, four compounds:
Compound	Methyltransferases
CN(CCc1ccccn1)[C@@H]1[C@H](O)[C@H](CO)O[C@@H]1CNC(=O)c1ccc(C(F)(F)F)cc1	i
Cc1cc(C)cc(NC(=O)CSc2nnc3n(CCCOC(C)C)c(=O)c4ccccc4n23)c1	i
COc1cc(OC)cc(N2C(=O)c3cc(-c4ccccc4)nn3CC2(C)C(=O)NCc2ccccc2)c1 (stereo unspecified)	i
COCC(=O)N1CCC(C(=O)NC(C)c2ccc3c(c2)OCCCO3)CC1 (stereo unspecified)	i

All compounds of this part, from the start:
Compound	Methyltransferases
CN(CCc1ccccn1)[C@@H]1[C@H](O)[C@H](CO)O[C@@H]1CNC(=O)c1ccc(C(F)(F)F)cc1	i
Cc1cc(C)cc(NC(=O)CSc2nnc3n(CCCOC(C)C)c(=O)c4ccccc4n23)c1	i
COc1cc(OC)cc(N2C(=O)c3cc(-c4ccccc4)nn3CC2(C)C(=O)NCc2ccccc2)c1 (stereo unspecified)	i
COCC(=O)N1CCC(C(=O)NC(C)c2ccc3c(c2)OCCCO3)CC1 (stereo unspecified)	i
CC(C)(O)C#Cc1ccc(-c2nccn2-c2cccc(-n3cncn3)c2)cc1	i
CC1(c2noc(C3CC3)n2)CCN(C(=O)CCc2nc3ccc(Cl)cc3[nH]2)CC1	i
CCCn1c(=O)c2ccc(C(=O)NC(C)C)cc2n2c(=O)n(CC(=O)Nc3ccccc3F)nc12	i
CC[C@H]1CN(C(=O)NC2CCCCC2)CC[C@H]1CC(=O)NCc1ccco1	i

Reformatted: entries from further up
CN(CCc1ccccn1)[C@@H]1[C@H](O)[C@H](CO)O[C@@H]1CNC(=O)c1ccc(C(F)(F)F)cc1
  Methyltransferases = i

CC[C@H]1CN(C(=O)NC2CCCCC2)CC[C@H]1CC(=O)NCc1ccco1
  Methyltransferases = i

COc1cc(OC)cc(N2C(=O)c3cc(-c4ccccc4)nn3CC2(C)C(=O)NCc2ccccc2)c1 (stereo unspecified)
  Methyltransferases = i

Cc1cc(C)cc(NC(=O)CSc2nnc3n(CCCOC(C)C)c(=O)c4ccccc4n23)c1
  Methyltransferases = i

(listing goes on)
Compound	Methyltransferases
O=C(c1ccc(Cl)cc1)N1CCN(Cc2ccccc2-c2cccnc2)CC1	i
COc1ccccc1CN1C(=O)c2nc3ccccc3n2CC1(C)C(=O)NC1CCCCCC1 (stereo unspecified)	i
COc1ccc(CN2C(=O)c3cc4occc4n3CC2(C)C(=O)NC2CCCCC2)cc1 (stereo unspecified)	i
Cc1cccc(COc2ccc3c(-c4ccccc4)cc(=O)oc3c2)c1	i
COc1ccc(CN2C(=O)c3ccc(-c4ccco4)n3CC2(C)C(=O)NC2CCCCCCC2)cc1 (stereo unspecified)	i
COc1ccc(CN2C(=O)c3nc4ccccc4n3CC2(C)C(=O)NCCC(C)C)cc1 (stereo unspecified)	i
COc1ccccc1CNC(=O)c1cc2n(n1)CC(C)(C(=O)NCCC(C)C)N(C)C2=O (stereo unspecified)	i
COc1cccc(N2CCN(C(=O)Cn3ncc4c3-c3ccccc3OC4)CC2)c1	?

Further records follow.
Compound	Methyltransferases
CCC(C)(O)C(O)C(=O)OCc1ccc(O[C@@H]2O[C@H](CO)[C@@H](O)[C@H](O)[C@H]2O)c(OC)c1 (stereo partly specified)	i
Cc1cc(C)cc(NC(=O)Cn2nc3n(Cc4ccc(F)cc4)c(=O)c4ccccc4n3c2=O)c1	i
O=C(CCn1ccc2cc(S(=O)(=O)N3CCCC3)ccc21)NC1CCCc2ccccc21 (stereo unspecified)	i
Cc1ccc(C)c(N2CCN(C(=O)CCc3nnc4n(Cc5ccccc5)c(=O)c5ccccc5n34)CC2)c1	i
C[C@@H]1O[C@@H](O[C@H]2[C@H](OC(=O)[C@]34CCC(C)(C)C[C@H]3C3=CCC5[C@@]6(C)C[C@H](O)[C@H](O[C@@H]7O[C@H](CO)[C@@H](O)[C@H](O)[C@H]7O)[C@](CO)(C(=O)O)C6CC[C@@]5(C)[C@]3(C)C[C@H]4O)OC[C@H](O)[C@@H]2O)[C@H](O)[C@H](O)[C@H]1O[C@@H]1OC[C@@H](O)[C@H](O[C@@H]2OC[C@](O)(CO)[C@H]2O)[C@H]1O (stereo partly specified)	i
CC(Cc1ccncc1)Nc1nccc(-c2cnn(-c3ccccc3)c2)n1 (stereo unspecified)	?
Cc1cc(NC(=O)Nc2ccc(F)c(F)c2)n(-c2ccccc2)n1	i
Cc1ccc(N2C(=O)c3ccc(-c4ccco4)n3CC2(C)C(=O)NCc2ccc(Cl)cc2)cc1C (stereo unspecified)	i

Next part
Compound	Methyltransferases
Cc1cccc(Cn2nc3n(CCc4ccccc4)c(=O)c4ccccc4n3c2=O)c1	i
C=Cc1ccc(Cn2nc3n(CC(C)C)c(=O)c4ccc(C(=O)NCC(C)C)cc4n3c2=O)cc1	i
CCN1CCN(C(=O)C23CCC=C2N(C2CCCC2)C(=O)CC3)CC1 (stereo unspecified)	i
COc1ccc(C(=O)Cn2nc3n(CC(C)C)c(=O)c4ccc(C(=O)NC(C)C)cc4n3c2=O)cc1	i
CCCCc1oc2ccc(NS(C)(=O)=O)cc2c1C(=O)c1ccc(OCCCN(CCCC)CCCC)cc1	i
CCCN1C(=O)c2cc3sccc3n2CC1(C)C(=O)NC1CCCCCC1 (stereo unspecified)	i
C[C@H](NC(CCc1ccccc1)C(=O)O)C(=O)N1CCC[C@H]1C(=O)O (stereo partly specified)	i
Cc1ccc(-c2noc(CNC(N)=O)n2)nn1	?

Remaining list, next part
Compound	Methyltransferases
Cc1cn2nc(C(=O)NC3CCC(C)CC3)cc2c(N2CCCC2)n1 (stereo unspecified)	?
CC(C)=C1C[C@@]2(C)C(=CC1=O)CC[C@@H](OC(=O)/C(C)=C/CO)[C@@H]2C	i
COc1cccc(CNC(=O)Cn2ccc3cc(S(=O)(=O)N4CCCCC4)ccc32)c1OC	i
COc1ccc(CC(=O)N2CCC3(CC2)C(=O)NCN3C(=O)C2CCCC2)cc1	i
CCCN1C(=O)c2cc3ccc(OC)cc3n2CC1(C)C(=O)NC1CCCCC1 (stereo unspecified)	i
CCc1ccc(NC(=O)Cn2nc3n(Cc4ccc(C)cc4)c(=O)c4ccccc4n3c2=O)cc1	i
COc1ccc(C2(CNC(=O)[C@](C)(Cc3c[nH]c4ccccc34)NC(=O)Nc3ccc([N+](=O)[O-])cc3)CCCCC2)nc1	i
COc1cccc(CN2Cc3cc(NC(=O)Cc4ccccc4)ccc3OCC2=O)c1	i

Following part.
Compound	Methyltransferases
CCCn1c(=O)c2cc(F)ccc2n2c(SCc3ccc(Cl)cc3)nnc12	i
CC(C)CNC(=O)c1ccc2c(=O)n(CC(C)C)c3nn(CC(=O)Nc4ccccc4)c(=O)n3c2c1	i
CCC(C)NC(=O)c1ccc2c(=O)n(C)c3nnc(SCc4ccc(F)cc4)n3c2c1 (stereo unspecified)	i
CC(=O)Nc1c2n(c3ccc(F)cc13)CC(C)(C(=O)NCCC(C)C)N(Cc1ccccc1)C2=O (stereo unspecified)	i
COCCCNC(=O)C1(C)Cn2nc(-c3ccccc3)cc2C(=O)N1c1cc(C)ccc1C (stereo unspecified)	i
CC(=O)/C(C)=N/O	i
CCc1ccc(N2C(=O)c3cc4occc4n3CC2(C)C(=O)NC2CCCCCC2)cc1 (stereo unspecified)	i
COc1ccc(CNC(=O)c2cc3n(n2)CC(C)(C(=O)NCCC(C)C)N(C)C3=O)cc1 (stereo unspecified)	i

(next part)
Compound	Methyltransferases
CSc1cccc(N2C(=O)CSc3c(c4ccccc4n3C)C2C(=O)NCc2ccc(F)cc2)c1 (stereo unspecified)	i
CC(=O)SCC(=O)c1ccc(NS(=O)(=O)c2ccc(OCCCN(C)C)cc2)nc1	i
O=C([C@@H]1CNC[C@H](C(=O)N2CCC(c3ccncn3)CC2)C1)N1CCCC1	i
CC1(C(=O)NC2CCCCCCC2)Cn2c(ccc2-c2ccco2)C(=O)N1CCCc1ccccc1 (stereo unspecified)	i
COc1cc2ncnc(Nc3ccc(F)c(Cl)c3)c2cc1OCCCN1CCOCC1	+
O=C(CCn1cccn1)NC1CC(=O)N(Cc2cccc3ccccc23)C1 (stereo unspecified)	i
CCCn1c(=O)c2cc(Cl)ccc2n2c(SCC(=O)NC(C)CC)nnc12 (stereo unspecified)	i
CCCn1c(=O)c2ccc(Cl)cc2n2c(=O)n(CC(=O)c3ccc(OC)c(OC)c3)nc12	i

More results follow:
Molecule,Methyltransferases
O=C(CC1CCCCC1)N1CCCC1c1nncn1Cc1ccncc1 (stereo unspecified),i
COc1ccc2c(c1)c(-n1cccc1)c1n2CC(C)(C(=O)NC2CCCCCC2)N(Cc2ccc(C)cc2)C1=O (stereo unspecified),i
C[S+](=O)([O-])N1CCN(c2nccc(Nc3ccccc3F)n2)CC1,i
COc1ccc(OC)c2c1cc1n2CC(C)(C(=O)NC2CCCCC2)N(Cc2ccccn2)C1=O (stereo unspecified),+
COc1ccc(CN2CCc3nc(N4CCN(C)CC4)[nH]c(=O)c3CC2)c(OC)c1OC,i
COc1ccc(-c2cc3n(n2)CC(C)(C(=O)NCc2ccccc2)N(c2ccc(C(C)C)cc2)C3=O)cc1 (stereo unspecified),i
COc1cccc(CNC(=O)c2cc3n(n2)CC(C)(C(=O)NCc2ccccc2)N(C)C3=O)c1 (stereo unspecified),i
CC(C)Cn1c(=O)c2ccc(C(=O)NC(C)C)cc2n2c(SCC(=O)NC3CCCCC3)nnc12,i

(list continues)
Molecule,Methyltransferases
CCCC(=O)N1CCC(N2C(=O)N(Cc3cccnc3)CC23CCOC3)CC1 (stereo unspecified),i
CCCN1C(=O)c2c(C(=O)NCc3ccccc3Cl)ncn2CC1(C)C(=O)NC1CCCC1 (stereo unspecified),i
CCNC(=O)c1ccc2c(c1)OCCN(c1cccc(OC(F)(F)F)c1)C2,i
CS(=O)(=O)c1ccc(N2CCN(CC3(O)CNCCOC3)CC2)c(F)c1 (stereo unspecified),i
Cc1cccc(CCNC(=O)CCCc2nnc3n4nc(C)nc4c4ccccc4n23)c1,i
COc1ccc(C(=O)Nc2ccc3c(c2)C(=O)N(C)C2=NCCN23)cc1OC,i
CC1CCCC(NC(=O)C2(C)Cn3c(nc4ccccc43)C(=O)N2Cc2ccc3c(c2)OCO3)C1C (stereo unspecified),i
COc1ccc(C)cc1NS(=O)(=O)c1ccc2c(c1)n(C)c(=O)n2C,i

Further entries follow.
Molecule,Methyltransferases
CC1OC(O[C@@H]2[C@H](O)[C@@H](OC3OC(CO)C(O)C(O)C3O)[C@H](OC(=O)[C@]34CCC(C)(C)C[C@H]3C3=CCC5[C@@]6(C)CC[C@H](O[C@@H]7O[C@H](C(=O)O)[C@@H](O)[C@H](O[C@@H]8OC[C@@H](O)[C@H](O)[C@H]8O)[C@H]7O[C@@H]7O[C@H](CO)[C@H](O)[C@H](O)[C@H]7O)[C@@](C)(C=O)C6CC[C@@]5(C)[C@]3(C)C[C@H]4O)O[C@@H]2C)C(O)C(O)C1OC1OCC(O)C(O)C1O (stereo partly specified),i
COCCNC(=O)C[C@@H]1C[C@@H](C(C)C)[C@H](CNC(=O)c2cnccn2)C=C1C,i
CC1(C(=O)NC2CCCC2)Cn2c(cc3ccccc32)C(=O)N1CCc1cccs1 (stereo unspecified),i
CCC(C)N1C(=O)c2ccccc2CC1(C)C(=O)NC1CCCCCCC1 (stereo unspecified),i
Cc1cccc(C#Cc2ccccc2)n1,i
O=C(CCc1nnn2c1CN(C(=O)NCCc1ccccc1)CC2)NC1CC1,i
Cc1cccc(S(=O)(=O)N2CCC[C@@H]2CCN2CCC(C)CC2)c1,i
C/C=C(/C)C(=O)OC1C(OC(C)=O)C23C(O)OC4(CCC5C6(C)CCC(OC7OC(C(=O)O)C(O)C(OC8OC(CO)C(O)C(O)C8OC8OC(C)C(O)C(O)C8OC8OCC(O)C(O)C8O)C7OC7OC(CO)C(O)C(O)C7O)C(C)(C)C6CCC5(C)C4(C)CC2OC(C)=O)C3CC1(C)C (stereo unspecified),i

Later entries:
Molecule,Methyltransferases
CCC(C)NC(=O)c1ccc2c(=O)n(C(C)C)c3nn(CC(=O)Nc4cccc(Cl)c4)c(=O)n3c2c1 (stereo unspecified),i
CCOC(=O)c1cc2n(n1)CC(C)(C(=O)NCCC(C)C)N(c1ccc(C)c(C)c1)C2=O (stereo unspecified),i
O=S(=O)(c1ccccc1)c1nnn2c1nc(N1CCOCC1)c1ccccc12,i
COc1ccc(OC)c(S(=O)(=O)N2CC[C@@H]3COCCN(C)[C@@H]3C2)c1,i
Cc1ccc(NS(=O)(=O)c2cc3c(cc2C)n(C)c(=O)n3C)c(Cl)c1,i
Oc1ccc(CC2NCCc3cc(O)c(O)cc32)cc1 (stereo unspecified),i
O=S(=O)(NCCc1noc(-c2ccccc2)n1)c1ccc(Cl)cc1,i
CCOc1ccc(CCNS(=O)(=O)c2ccc3oc(=O)c4ncn(C)c4c3c2)cc1OCC,i

Additional records
Molecule,Methyltransferases
COc1ccccc1C(=O)Nc1ccc2c(c1)C(=O)N(C)C1=NCCN12,i
O=C1NCCOCCN(C(=O)c2nccc3ccccc23)[C@H]2CCC[C@@H]12,i
Cc1ccc(C(c2sc3nc(-c4ccco4)nn3c2O)N2CCCC2)cc1 (stereo unspecified),?
Cc1nc2ccccc2c(-c2ccc3c4c(ccnc24)CCO3)c1[C@H](OC(C)(C)C)C(=O)O,i
Cc1ccccc1Cn1nc2n(CCC(C)C)c(=O)c3ccccc3n2c1=O,i
CCCn1c(=O)c2ccccc2n2c(SCC(=O)NCc3ccccc3Cl)nnc12,i
CCc1c(CC(N)=O)c2cc(OCCCP(=O)(O)O)ccc2n1Cc1ccccc1,i
Cc1cnn(CCC(=O)N2CCCn3ccnc3C2c2cnn(C)c2)c1 (stereo unspecified),i
C[S+](=O)([O-])N1CC2(Cc3ccccc31)CN(C(=O)NC1CCCC1)C2,i
CN(CC(=O)Nc1ccc(F)c(Cl)c1)S(=O)(=O)c1ccc2[nH]c3c(c2c1)CCCC3,i
Cc1nc(CN2C[C@H](C(=O)N3CCN(c4ccccn4)CC3)C[C@@H]2c2ccc(F)cc2)cs1,i

Not all compounds are listed. The share of hits here may be higher or lower than overall.
